Screens: PubChem, Broad Institute
Beta cell apopt – beta cell apoptosis inhibition | INS-1E cytokine-induced death, ATP luminescence, 48 h; percent of positive-control rescue, neutral wells zero | protection from apoptosis, % (concentration not given with the values) | 300,000 tested, 0.8% active | AID 435005;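 active = all replicates at 75% or more, or half of them and the mean; inconclusive = half reach 75% but not the mean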;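 also: 0% = cytokine-treated negative control wells and 100% = positive control rescue; higher means more ATP so stronger rescue from cytokine killing; wells of about 40 µL received 100 nL stock; the first replicate is given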
FGF22 binding – shifts melting point of recombinant human FGF22 | Q9HCT0 | recombinant FGF22 thermal shift, SYPRO orange fluorescence; percent of sucrose octasulfate shift, DMSO zero | calls only at 9.99 µM | 340,000 tested, 1.5% active;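 active = melting point raised past a set limit in the mean and every replicate; inconclusive = no clear call; three in four hits are not shown here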
Target sequence (Q9HCT0 whole entry, looked up): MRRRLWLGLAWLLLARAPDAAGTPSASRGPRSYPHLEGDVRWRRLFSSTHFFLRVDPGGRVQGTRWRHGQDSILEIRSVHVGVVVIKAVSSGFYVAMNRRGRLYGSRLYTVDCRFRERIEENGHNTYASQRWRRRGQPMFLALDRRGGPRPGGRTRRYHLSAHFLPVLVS
MLL AF4-AF9 inh – blocks AF4 peptide binding to human AF9; AID 651704; 350,000 tested, 0.47% active; inhibition, % at 10 µM; P42568; AlphaScreen, biotin-AF4 peptide binding to FLAG-AF9;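 active = every replicate reaching a set inhibition limit, whatever the replicate mean, cut at about 25% in these data; inconclusive = mean inhibition reaches that limit but some replicates miss it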;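 also: 0% = plate neutral control median and 100% = total signal loss; the record names both 10 and 1 µM as test concentration; the first replicate is given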
Target sequence (P42568 whole entry, looked up): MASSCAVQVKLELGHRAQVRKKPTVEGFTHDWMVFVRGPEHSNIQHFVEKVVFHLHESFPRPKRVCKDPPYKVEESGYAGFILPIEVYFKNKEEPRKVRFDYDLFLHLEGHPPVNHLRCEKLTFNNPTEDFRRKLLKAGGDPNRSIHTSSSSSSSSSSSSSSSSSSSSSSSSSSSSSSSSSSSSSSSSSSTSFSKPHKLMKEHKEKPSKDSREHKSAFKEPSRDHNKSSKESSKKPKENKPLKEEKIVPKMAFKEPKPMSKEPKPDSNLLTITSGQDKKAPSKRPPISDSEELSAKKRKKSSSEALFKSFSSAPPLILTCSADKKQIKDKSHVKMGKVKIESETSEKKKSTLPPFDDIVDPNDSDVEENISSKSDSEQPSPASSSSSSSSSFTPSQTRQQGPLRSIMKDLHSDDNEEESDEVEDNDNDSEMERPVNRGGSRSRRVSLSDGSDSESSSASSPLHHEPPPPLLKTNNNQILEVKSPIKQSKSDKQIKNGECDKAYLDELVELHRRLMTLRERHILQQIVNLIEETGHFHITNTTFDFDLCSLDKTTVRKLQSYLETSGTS
ALR inh – human ALR oxidase inhibition via reduced H2O2. P55789. purified ALR, DTT oxidation, H2O2 HRP-luminol luminescence. inhibition, % (concentration not given with the values). 290,000 tested, 3.8% active. AID 485317;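 active = mean and each replicate at 75% or more; inconclusive = only one of the two met; inactive = neither met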;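 also: stock transfer was 7.5 nL into about 7.5 µL; 0% = neutral wells and 100% = wells with inactivated enzyme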
Target sequence (P55789 whole entry, looked up): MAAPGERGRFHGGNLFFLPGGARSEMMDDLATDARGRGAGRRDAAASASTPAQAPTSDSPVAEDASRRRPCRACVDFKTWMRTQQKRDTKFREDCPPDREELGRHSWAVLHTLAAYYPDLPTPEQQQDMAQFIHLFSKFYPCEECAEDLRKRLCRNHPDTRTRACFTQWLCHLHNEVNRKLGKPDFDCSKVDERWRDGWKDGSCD
RanGTP-Impb inh – disruptors of Ran-importin-beta complex formation – biochemical, FRET, CFP-Ran, YFP-importin-beta, homogeneous, primary screen; cell-free CFP-Ran/YFP-importin-beta FRET ratio; inhibition, % (concentration not given with the values); 300,000 tested, 1.1% active; AID 2216;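 active = most replicates above 15%; inconclusive = exactly half above 15%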;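 also: 0% = DMSO wells and 100% = Ran loaded with GDP instead of GTP; wells of about 40 µL received 100 nL stock; the first replicate is given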
rRNA inh HTS – inhibits bacterial ribosomal RNA function over humanized ribosomes; E. coli WT GFP vs humanized-ribosome RFP mutants, fluorescence, 24 h; stronger effect = lower value; DMSO median 0, no signal -100; 350,000 tested, 1.6% active; GFP signal change (wild-type ribosome), % (no concentration beside the values);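 active = significant combined selectivity score with lowered wild-type GFP, culture density cut under 30%, mutant RFP and density less affected; inactive = any of these conditions unmet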; also: one replicate is shown; some compounds called inactive have numbers as strong as hits
Calb FLC – C. albicans growth modulation with fluconazole. growth inhibition, % (test concentration not listed). C. albicans CaCi-2 (fluconazole-resistant clinical isolate) + fluconazole, Alamar Blue growth, 48 h. 300,000 tested, 0.57% active;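 active = most replicates above 75%; inconclusive = exactly half above 75%; inactive = most below 75%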;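 also: all wells also contain fluconazole at 8 µg/ml as a sub-toxic cotreatment; 0% = median of DMSO wells and 100% = median of geldanamycin control wells; wells of about 8 µL received 7.5 nL stock; the first replicate is given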
T cruzi inh – blocks replication of Trypanosoma cruzi; inhibition, % (test concentration not listed); 300,000 tested, 1.4% active; T. cruzi beta-gal in NIH3T3, luminescence, 90 h;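 active = mean inhibition across valid replicates above about 55%, limit read from the data; inconclusive = mean below that limit but half or more replicates reach it; inactive = mean below it, under half of replicates reach it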;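 also: signal also drops with host cell toxicity which is not excluded here; 0% = plate median of DMSO wells and 100% = zero luminescence signal; higher percent means less beta-gal luminescence so fewer parasites; stock transfer was 50 nL into about 50 µL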
rRNA inh HTS OD600 – second read-out of rRNA inh HTS, no call of its own (marks repeat the call); OD600 change, %; measured here: OD600 growth;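 optical density of the mix in the first replicate; 0 = DMSO median and -100 = no signal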
rRNA inh HTS RFP – recorded beside rRNA inh HTS, whose call it bears; RFP signal change, %; measured here: RFP humanized mutant strains;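 first replicate; 0 = DMSO median and -100 = no signal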
An asterisk follows results filed as active; i = inactive; ? = inconclusive; . = no result given.

SMILES	Beta cell apopt	FGF22 binding	MLL AF4-AF9 inh	ALR inh	RanGTP-Impb inh	rRNA inh HTS	rRNA inh HTS OD600	rRNA inh HTS RFP	Calb FLC	T cruzi inh
COC(=O)c1c(C)[nH]c(C(=O)OCC(=O)N(CC(C)C)c2c(N)n(Cc3ccccc3)c(=O)[nH]c2=O)c1C	1	i	0.7	.	-1.8	-3	-4	1.7	-7	1
Cc1ccc(S(=O)(=O)N(C)C)cc1NC(=O)Nc1ccccc1	-3	i	-1.3	-16	-1.3	-10	0	-2.5	-2	0
Cn1c(=O)oc2cc(S(=O)(=O)N3CCC4(CC3)OCCO4)ccc21	3	.	.	-13	7.0	.	.	.	-4	-1
CC(=O)N1c2ccc(C)cc2C(c2ccccc2)CC1C (stereo not drawn)	-7	i	-0.2	5	5.7	-26	-44	-5.9	40	16
CSCCC(NC(=O)c1ccco1)C(=O)Nc1cc(C)ccn1 (stereo not drawn)	-1	i	2.6	.	-2.1	3	13	0.0	2	-2
Cc1cc(C)c(S(=O)(=O)N2CCCC(C(=O)N3CCOCC3)C2)c(C)c1 (stereo not drawn)	-3	i	0.5	6	-0.8	5	3	1.4	-3	2
COc1ccccc1-c1nnc(SCC(=O)Nc2ccc3[nH]c(=O)[nH]c3c2)n1N	0	i	-4.7	98*	-5.1	2	17	0.8	.	-6
COC(=O)C(=C/C(C)=C/c1cccnc1)C(=O)OC	-7	i	-6.5	92*	4.3	-1	-7	-2.2	50	28
COc1ccc(-c2csc(Cc3nnc4n3CCCCC4)n2)cc1	-8	.	.	-3	1.9	-7	-14	-1.0	-9	7
Cc1noc(C)c1C(=O)NCc1cccs1	-3	i	7.3	-5	-3.1	17	6	-1.0	10	-19
Cn1c(=O)[nH]c(=O)c2c1nc(SCCC(=O)O)n2Cc1cccc(Br)c1	.	i	-15	0	2.0	8	6	0.3	1	-5
O=C(CN1C(=O)NC2(CCCC2)C1=O)Nc1ccc(F)c(F)c1F	-1	.	.	-4	-0.6	.	.	.	8	7
Cc1ccc2nc(COC(=O)c3ccc(Cl)nc3)cc(=O)n2c1	-3	i	-3.6	0	.	16	11	-1.5	.	.
O=C(NCC1CCCO1)c1ccc(-c2cccc(C(F)(F)F)c2)o1 (stereo not drawn)	-14	i	-1.8	-1	4.4	-36	-29	-5.1	0	0
Cn1c(SCc2cc(=O)[nH]c3ccccc23)nnc1-c1ccc(Br)cc1	36	.	.	1	0.1	.	.	.	0	1
Cc1ccc(NC(=O)CCC(=O)NNS(=O)(=O)c2ccc(Cl)cc2)cc1C	1	i	-1.2	-2	.	5	10	1.8	-7	.
CS(=O)(=O)N1CCCC(C(=O)Nc2ccccc2Cl)C1 (stereo not drawn)	1	i	-2.3	.	-0.5	7	6	0.9	-1	0
Cc1nc2ccccc2n1S(=O)(=O)c1cc(C(=O)O)ccc1Cl	-3	i	-9.4	-20	0.5	9	11	-0.6	-4	-1
CCCCc1nc(SCC(=O)N2CCCCC2)c2c(=O)n(C)c(=O)n(C)c2n1	6	i	0.3	12	2.8	-1	-8	-0.5	-1	21
CCOc1ccccc1N(CC(=O)Nc1ccccc1C(=O)N1CCCC1)S(C)(=O)=O	-1	i	-19	0	2.6	-3	14	-2.0	9	-3
CN(C)C1(CNC(=O)c2cccc(S(=O)(=O)Nc3ccc(Br)cc3)c2)CCCCC1	-1	i	-15	3	-2.6	1	-17	1.7	-3	-14
CCOc1ccc(NS(=O)(=O)c2cc(C)c(C)cc2C)cc1	-2	i	0.6	-4	-0.8	-49	-78	-8.1	18	16
Nc1cc(-c2nc3ncccc3o2)ccc1Cl	-1	i	2.4	-6	-0.5	-2	0	1.6	-6	-8
O=[N+]([O-])c1ccc(Cl)c(CN2CCN(c3ncccn3)CC2)c1	1	i	7.3	1	-0.7	-12	-2	-4.3	-12	-1
CCN(CC)C(=O)CSc1nc(O)cc(=O)n1C	3	.	.	73	-1.6	.	.	.	-27	-10

Other records:
SMILES	Beta cell apopt	FGF22 binding	MLL AF4-AF9 inh	ALR inh	RanGTP-Impb inh	rRNA inh HTS	rRNA inh HTS OD600	rRNA inh HTS RFP	Calb FLC	T cruzi inh
Cc1cccc(CSCCNC(=O)c2ccc(N(C)S(=O)(=O)c3ccccc3)cc2)c1	4	.	.	9	-1.1	.	.	.	0	-7
CCOC(=O)C1CCN(C(=O)CCc2c(C)nc3c(-c4ccc(F)cc4)c(C)nn3c2C)CC1	-1	i	1.3	-3	4.8	2	4	-4.1	2	-1
Cc1ccc(-c2c[n+](CC(=O)Nc3ccccc3C)c3n2CCC3)cc1	0	i	2.8	.	-1.5	.	.	.	-25	.
COc1ccccc1/C=C1\N=C(C(C)(C)C)OC1=O	-7	i	0.4	0	3.1	10	-3	1.3	4	-10
Cc1ccc([N+](=O)[O-])cc1NC(=S)NC(=O)C(C)(C)C	-4	.	.	3	2.2	.	.	.	-6	-7
Cc1cc(=O)oc2c(C)c(OC(=O)c3ccco3)ccc12	-2	i	-1.0	.	0.9	6	12	0.1	-10	-16
Cc1cc(C)nc(SCCn2c(N3CCCCC3)nc3c2c(=O)n(C)c(=O)n3C)n1	-1	.	.	-6	-1.7	.	.	.	-2	6
Cc1cccc(N2CCN(Cc3nc(C4CC4)no3)CC2)n1	-5	i	-0.4	2	1.3	4	1	-4.8	-2	0
CC(=O)c1ccc(N2CCN(S(=O)(=O)c3c(C(=O)N4CCCC4)c(C)n(C)c3C)CC2)cc1	-9	i	-3.6	-4	7.0	8	5	0.4	2	0
CCOC(=O)N1CCC(NC(=O)c2ccc(CS(=O)(=O)c3c(Cl)cccc3Cl)o2)CC1	2	i	-5.6	-7	-1.8	0	1	1.9	3	3
COc1ccc(CCNc2ccc(S(=O)(=O)N3CCN(C)CC3)cc2[N+](=O)[O-])cc1	-3	i	3.1	-2	-0.4	-17	-13	2.7	-1	-1
Cc1c(C(=O)N(C)CC(=O)Nc2cccc(F)c2)oc2c(Cl)cccc12	-1	i	-1.6	-3	-1.5	-26	-57	2.9	-7	4
CCc1ccc2oc(=O)cc(CN(C)Cc3ccccc3)c2c1	-3	.	.	-5	-1.5	.	.	.	17	22
O=C(NCCc1cn2ccccc2n1)C1CCCCC1	-4	i	-5.9	0	1.1	4	11	0.2	-12	-12
COc1ccc(S(=O)(=O)NCCSCc2cccc(C)c2)cc1Br	-2	.	.	-2	-2.6	.	.	.	7	2
Cc1cc(Cl)ccc1NC(=O)c1ccc2c(c1)OCO2	.	i	-9.0	-8	4.8	10	8	3.8	-25	-27
Cc1ccc(C(=O)Cn2nc(C)c([N+](=O)[O-])c2C)c(C)c1	11	i	-2.1	.	4.0	12	6	0.7	-5	-1
O=C(Nc1ccc(Cl)cc1)OCc1cc(-c2ccccc2Cl)on1	2	.	.	2	0.9	.	.	.	-5	1
CCC(=O)OCc1cc(=O)oc2ccc3ccccc3c12	9	i	-2.4	-8	0.7	-2	-2	-2.7	12	3
Cc1ccc(C(=O)NC(c2ccccc2)C(Cl)Cl)cc1 (stereo not drawn)	6	.	.	1	1.2	.	.	.	-4	-11
COc1ccccc1C1Nc2cccc3cccc(c23)N1	.	.	.	?	3.2	.	.	.	47	1
COC(=O)c1cc(S(=O)(=O)N2CCOCC2)ccc1Sc1ccccc1N	2	.	.	-10	0.1	.	.	.	4	6
CNC(=S)N(Cc1ccc(OC)cc1)Cc1cc2cccc(C)c2[nH]c1=O	2	i	0.4	1	-3.6	-5	-6	3.9	7	19
CCn1c(CNc2ccccc2Cl)nnc1SCC(=O)NCc1ccccc1	-8	i	2.4	-3	2.7	-26	-29	-0.5	22	7
CC(=O)Oc1ccc(N(c2ccccc2)S(=O)(=O)c2ccc(C)cc2)cc1	1	i	-2.8	1	0.0	-24*	-6.9*	1.2*	-8	-4

(more compounds)
SMILES	Beta cell apopt	FGF22 binding	MLL AF4-AF9 inh	ALR inh	RanGTP-Impb inh	rRNA inh HTS	rRNA inh HTS OD600	rRNA inh HTS RFP	Calb FLC	T cruzi inh
COC(=O)Cc1ccc(NC(=S)N2CCN(c3ccc(F)cc3)CC2)cc1	4	.	.	-2	0.2	.	.	.	10	-28
O=C(CNC(=O)C1CCCCC1)NCc1ccco1	-5	i	-5.3	-1	-1.4	-1	-2	1.6	-3	-10
Cc1cc(N2CCOCC2)nc2ccc(NC(=S)N3CCN(Cc4ccccc4)CC3)cc12	0	i	3.8	-5	3.5	-26	-24	-2.0	8	37
CSc1ccc(S(=O)(=O)NC2CC3CCC2C3)cc1 (stereo not drawn)	.	i	1.4	-17	2.8	-22	-41	-1.1	-1	0
CC(C)CCc1c(O)nc(SCC(C)C)[nH]c1=O	3	i	-0.6	89*	?	8	9	0.0	0	-6
COc1ccc(C(=O)N/N=C/c2ccc(OC)c(CN3CCc4cc(OC)c(OC)cc4C3C)c2)cc1 (stereo not drawn)	4	i	8.8	-29	-0.1	-15	0	1.3	-9	31
CC(C)(C)NC(=O)Cn1c(SCC(=O)NC2CCCCC2)nc2ccccc21	2	.	.	-24	6.9	.	.	.	-1	-6
CC(=O)Oc1ccc(N(C(C)=O)S(=O)(=O)c2ccc3ccccc3c2)cc1	-7	i	-1.9	.	-2.6	-2	-8	2.6	1	3
CCC1=Nc2cc(C(=O)NCc3ccco3)ccc2Sc2ccc(C)cc21	16	i	13	-2	?	-8	-14	-7.3	27	16
C=CCn1c(SCC(=O)c2ccc(Cl)cc2)nnc1-c1ccc2c(c1)OCO2	-1	i	-2.4	92*	-0.5	-14	-20	-3.1	1	10
COc1cc(NC(=O)C2CCN(S(=O)(=O)c3ccc(Cl)cc3)CC2)ccc1-n1cnnn1	3	.	.	-7	-3.0	.	.	.	-13	-17
O=C(CSC1=NCCS1)Nc1nc(-c2ccccc2)cs1	0	.	.	.	-1.0	.	.	.	30	-5
O=C(NCc1ccccc1Cl)C(=O)NCC1OCCN1S(=O)(=O)c1ccc(F)cc1 (stereo not drawn)	0	i	-0.9	-7	5.1	.	.	.	3	-3
CCOc1cc2[nH]c(=S)n(CC3CCCN3CC)c(=O)c2cc1OCC (stereo not drawn)	-1	.	.	60	-1.0	.	.	.	1	12
Cc1cc(N2CCCC2)ccc1/C=C1\NC(=S)N(C)C1=O	38	.	.	55	-1.6	.	.	.	-5	5
CCOc1ccc(OCC)c(Nc2cc(C)nc3ncnn23)c1	3	i	-0.9	-5	-1.8	1	-1	2.1	-5	-2
CC(C)(C)OC(=O)[C@H](Cc1ccccc1)NC(=O)c1nc[nH]c1C(=O)N1CCNCC1	-13	i	3.2	6	.	13	15	3.4	.	.

Single records, as listed above.
`CCOc1cc2[nH]c(=S)n(CC3CCCN3CC)c(=O)c2cc1OCC` (stereo not drawn) reads Beta cell apopt = -1; FGF22 binding = .; MLL AF4-AF9 inh = .; ALR inh = 60; RanGTP-Impb inh = -1.0; rRNA inh HTS = .; rRNA inh HTS OD600 = .; rRNA inh HTS RFP = .; Calb FLC = 1; T cruzi inh = 12
`CCOc1ccc(OCC)c(Nc2cc(C)nc3ncnn23)c1` reads Beta cell apopt = 3; FGF22 binding = i; MLL AF4-AF9 inh = -0.9; ALR inh = -5; RanGTP-Impb inh = -1.8; rRNA inh HTS = 1; rRNA inh HTS OD600 = -1; rRNA inh HTS RFP = 2.1; Calb FLC = -5; T cruzi inh = -2

These rows are one share of the data, so the mix of outcomes need not match the whole.
